From PubChem BioAssay
Ba CapD inh: blocks the Bacillus anthracis CapD enzyme; purified CapD enzyme, fluorescence intensity read-out; stronger effect = lower value; some hits fall short of the stated cut; z-score (no concentration beside the values); 140,000 tested, 0.23% active; AID 492967;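 active means z-score under -4 in either of two replicates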;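 further: stock transfer was 100 nL into about 40 µL; score is relative to mean and spread of the plate; one replicate is shown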
AID504770: growth inhibitors of E. coli YBA685 in a screen for V. cholerae RctB (chromosome II replication) inhibitors | E. coli YBA685 rctB-dependent plasmid, OD600 growth, 3 h; stronger effect = lower value | z-score (concentration not given with the values) | 130,000 tested, 0.27% active | AID 504770;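 active means z-score under -2 on both plates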;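 further: wells of about 30 µL received 100 nL stock; score is relative to mean and SD of the test wells; the first replicate is given; strong numbers were not always called active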
Numbers without * were called inactive; . = not tested or not shown. Compounds as they come. Share with any hit: about 0.37%.

SMILES	Ba CapD inh	AID504770
COc1cc(OC)nc(C2CCN(C(=O)CCC(=O)NCC3CCCO3)CC2)n1 (stereo not drawn)	-0.15	.
CN1C(=O)/C(=N\N2C(=O)CSC2=S)c2ccccc21	0.055	-1
CCCOc1c(-c2ccc3ccccc3n2)cnc2ccccc12	42	-0.9
Cc1cc(C(=O)OCc2ccccc2)c(C)o1	0.68	0.5
O=C(NCc1ccccc1)c1ccc(CN2CCC(Cc3ccccc3)CC2)cc1	-2.8	-0.65
Cc1nc2c(c3c1[nH]c1ccccc13)C(N)CC(C)(C)C2 (stereo not drawn)	41	.
C/C(=N\Nc1ccccc1)C1Cc2ccccc2C(=O)O1 (stereo not drawn)	.	-2.1
O=C(Nc1nc2ccccc2c(=O)s1)c1ccco1	-1.4	-0.6
Nc1ncnc2c1ncn2C1C=CC(CO)O1 (stereo not drawn)	0.35	0.25
Cc1ccc(-c2cc(Cc3cccnc3)c(=O)[nH]n2)cc1	0.78	0.5
N#C/C(=C\Nc1ccc(Cl)cn1)S(=O)(=O)c1ccccn1	-0.41	.
O=S(=O)(CCn1cccc1)CCn1cccc1	.	0.5

New compounds follow
SMILES	Ba CapD inh	AID504770
CCC1Nc2ccccc2NC1=O (stereo not drawn)	19	-0.65
O=C(Cn1nnc2ccccc21)OCC(=O)c1ccc(Cl)cc1	.	-0.3
Cn1cc(NC(=O)NCCN2CCCC2)c2ccccc2c1=O	32	-0.35
COc1ccc(C(=O)NCc2nnc(SC)n2CCc2ccccc2)cc1	-0.72	2
Cc1ccc(C(=O)OC2=CC(=O)c3ccccc3C2=O)cc1	-1.3	0.6
CCc1cccc(NC(=O)CCCN2C(=O)COc3ccc(C)cc32)c1	0.41	-0.65
CCOC(=O)c1sc2nc(SCC(=O)NCc3ccccc3Cl)n(Cc3ccco3)c(=O)c2c1C	8	.
Fc1cccc(CSc2ncnc3nc[nH]c23)c1	-1.3	0.55
CC(C)(C)C(=O)CSC1=CC(=O)CC(c2ccccc2)S1 (stereo not drawn)	-0.02	-0.85
O=C(Nc1ccc(-n2nncc2-c2ccccc2)cc1)c1cccs1	0.39	-0.55
O=C(O)/C=C/C(=O)Nc1ccc2c(c1)OCCO2	0.055	0.9
N#Cc1cc2c(nc1SCC(=O)Nc1nc(-c3ccccc3)cs1)CCCC2	-0.87	.

The listing continues.
SMILES	Ba CapD inh	AID504770
CCOC(=O)Cn1c(=O)c(C(N)=S)cn(C(C)C)c1=O	-1.5	0.6
COC(=O)C1C(=O)NC(SCC(=O)Nc2cccc(F)c2)=C(C#N)C1c1ccccc1Cl (stereo not drawn)	-0.32	.
OCCN=Cc1c[nH]c2ccccc12	2.8	.
O=C(Cn1cnc2sc3c(c2c1=O)CCCC3)NCCCC(=O)Nc1nc2ccccc2s1	-0.26	.
COc1ccc(C2N(C(=O)c3ccccc3)CCCN2S(=O)(=O)c2ccc(C)cc2)cc1 (stereo not drawn)	0.34	-0.5
O=S(=O)(NCCN1CCOCC1)c1ccc(Cc2ccc(S(=O)(=O)NCCN3CCOCC3)cc2)cc1	0.18	0.3
COC(=O)c1ccc(C(=O)NN)cc1	0.05	-0.1
O=S(=O)(CCc1nc2ccccc2o1)c1ccc2ccccc2c1	0.47	0
O=C(NCc1ccc(Cl)cc1)OCCCc1ccccc1	0.78	.
COC(=O)c1cccc(NC(=O)C2=NNC(=O)CC2)c1	-0.57	-2.2
N#Cc1ccc(NC(=O)CCC(=O)O)cc1	.	-0.1
O=C(Cc1ccccc1)Nc1cccc(-c2ccc(N3CCCC3)nn2)c1	.	-0.75

3 entries from above, field by field.
SMILES: COC(=O)c1cccc(NC(=O)C2=NNC(=O)CC2)c1
  Ba CapD inh: -0.57
  AID504770: -2.2

SMILES: OCCN=Cc1c[nH]c2ccccc12
  Ba CapD inh: 2.8
  AID504770: .

SMILES: O=S(=O)(NCCN1CCOCC1)c1ccc(Cc2ccc(S(=O)(=O)NCCN3CCOCC3)cc2)cc1
  Ba CapD inh: 0.18
  AID504770: 0.3

Next part:
SMILES	Ba CapD inh	AID504770
N#Cc1nc(N2CCCC2)nc(N2CCCC2)n1	-1.1	0.05
CSc1nnc(NC(=O)C23CC4CC(CC(C4)C2)C3)s1	0.17	-0.1
COC(=O)C1=C(C)NC(=S)NC1/C=C/c1ccccc1 (stereo not drawn)	-0.25	-0.6
CCc1ccc(CN2CCC(O)CC2)cc1	0.21	-0.55
Cc1ccc(C(=O)N(Cc2ccccc2)C(C)C)cc1	1.2	-0.2
O=c1/c(=C/c2cccc(Br)c2)sc2nc3cc(Br)cnc3n12	0.05	.
O=C(CN1C(=O)c2ccccc2C1=O)Nc1ncc(S(=O)(=O)c2ccc([N+](=O)[O-])cc2)s1	-0.06	.
O=C(Nc1ccc(-n2ccnc2P(=O)(O)c2ccccc2)cc1)c1ccccc1Cl	0.01	-1.4
CSc1ncccc1C(=O)Nc1ccccc1C	6.5	-0.35
COc1ccc(C(N)=O)c(O)c1	.	2
COC(=O)C1=NNC2C(=O)N(C3CCCCC3)C(=O)C12 (stereo not drawn)	.	-0.35
Clc1ccc(Oc2nc3ccccc3[nH]2)c(Cl)c1	.	0.25

Brought forward from above: two compounds, then new ones.
SMILES	Ba CapD inh	AID504770
COC(=O)C1=NNC2C(=O)N(C3CCCCC3)C(=O)C12 (stereo not drawn)	.	-0.35
Clc1ccc(Oc2nc3ccccc3[nH]2)c(Cl)c1	.	0.25
C=CCN1C(=O)/C(=C\c2ccccc2F)S/C1=N\c1nnc(C)s1	0.28	-0.3
COc1cc(Br)cc(C=Nc2cccc(Br)c2)c1O	-0.7	.
O=S(=O)(c1cc(Cl)sc1Cl)n1cccc1	3.9	0.1
COC(=O)c1ccc(N=C2SC(C(=O)Nc3ccc(OC)cc3)CC(=O)N2C)cc1 (stereo not drawn)	-0.49	.
CCOc1ccc(N2C(=O)/C(=C/c3ccc(OC(C)C(=O)O)cc3)C(=O)NC2=S)cc1 (stereo not drawn)	-0.78	.
Cc1ccc2cc(CN(C(=O)c3cnccn3)C3CCCCC3)c(=O)[nH]c2c1	.	-0.85
c1ccc(CN2CCCN(Cc3ccccc3)C2c2ccncc2)cc1	0.36	0.4
Cc1nnc(NC(=O)CCN2C(=O)/C(=C/c3cccc(Br)c3)SC2=S)s1	-0.15	.
COc1ccc(C(=O)Cc2c(O)c3ccccc3oc2=O)cc1	0.045	.
CC(=O)NC(C)C(=O)Nc1cccc(C)c1C (stereo not drawn)	.	0.55
c1ccc(CCNCc2cn[nH]c2-c2cccs2)cc1	-0.21	0.75
N#Cc1ccc(C2Oc3ccccc3C3CC(c4ccc5c(c4)OCCO5)=NN32)cc1 (stereo not drawn)	.	0.3

Remaining list, next part:
SMILES	Ba CapD inh	AID504770
CC(CN(C)Cc1ccccc1)OC(=O)c1cccs1 (stereo not drawn)	0.16	0.2
COc1cc(OC)cc(C(=O)OCC(=O)c2ccc(O)cc2O)c1	.	-0.15
O=S(=O)(Nc1ccc2c(c1)OCCO2)c1csc(-c2cc(C(F)(F)F)on2)c1	0.29	-0.3
CCOc1ccc(CN(C)C(=O)c2cc(S(=O)(=O)N3CCOCC3)ccc2C)cc1	.	1.9
CC1(C)C2([N+](=O)[O-])CN3CC1([N+](=O)[O-])CN(C2)C3c1ccc(Cl)cc1 (stereo not drawn)	-0.07	.
CCOC(=O)c1ccc(N2C(=O)c3ccccc3NC2c2ccc(OCC(C)C)cc2)cc1 (stereo not drawn)	11	.
O=C(Sc1nnc(SCCOc2ccccc2)s1)c1ccccc1	0.56	.
NCCC(Cc1ccccc1)c1ccc2c(c1)OCO2 (stereo not drawn)	9.2	-0.55
Nc1nc2ccccc2n1CCCOc1ccc(F)cc1	0.17	-1.9
O=C(O)CCS(=O)(=O)c1ccccc1	0.24	-0.85
COc1ccc(N2C(C(C)=O)=NN(c3ccccc3)C2c2cccs2)cc1 (stereo not drawn)	-0.29	.
O=C1CN=C(c2cc([N+](=O)[O-])ccc2Cl)c2cc([N+](=O)[O-])ccc2N1	0.01	.

(cont.)
SMILES	Ba CapD inh	AID504770
CCOC(=O)N1CCN(c2nc(-c3ccc(C)cc3)nc3ccccc23)CC1	0.18	.
Cc1cc2c(cc1S(=O)(=O)N(C)Cc1ccccc1)OCCN2C	-0.33	-0.25
CC(=O)Nc1ccc(O)c(C(=O)CC(=O)c2ccccc2)c1	0.9	1.1
O=c1c2ccccc2nc2sc3ccccc3n12	7.2	-0.1
C=CCSc1nnc(-c2c[nH]c3ccccc23)n1CC	.	0
CC1=C(C)C(=O)C(NCc2ccccn2)=CC1=O	.	-0.3
CC1(C)CC(=O)C2=C(C1)c1c(ccc3ccccc13)NC2c1cccc(O)c1 (stereo not drawn)	94	.
COc1ccccc1C(=O)Nc1ccc(-c2cn3ccccc3n2)cc1	31	2
COc1ccc(-c2noc(-c3ccccc3C(=O)N3CCCCC3)n2)cc1OC	2.8	0.65
CCOc1ccc(N(CC(=O)Nc2c(C)n(C)n(-c3ccccc3)c2=O)S(=O)(=O)c2ccc(Cl)cc2)cc1	-1	.
N/C(CN1CCSCC1)=N\OC(=O)c1ccccc1F	-0.18	0.2
O=P1(N2CCN(c3ccc(F)c(Cl)c3)CC2)COc2ccccc2OC1	-0.36	-0.65

The listing continues.
SMILES	Ba CapD inh	AID504770
COC(=O)c1c(C)nn(-c2ccc(OC(F)(F)F)cc2)c1-c1snnc1C	9.2	-0.2
N#C[C@@H]1O[C@H](COC(=O)c2ccccc2)[C@@H](OC(=O)c2ccccc2)[C@H]1OC(=O)c1ccccc1	0.14	0.25
O=C(CO/N=C/c1ccc(Cl)cc1Cl)NNC(=O)OCC#Cc1ccccc1	0.65	.
CC(C)C(=O)n1c2ccc(F)cc2c2nc3ccccc3nc21	0.54	-0.6
CCc1nnc2c3cnn(-c4ccccc4)c3nc(C)n12	.	-0.5
C/C(=N\OCC(=O)Nc1oc(-c2ccccc2)c(-c2ccccc2)c1C#N)c1ccccc1	-0.035	.
N#CC(c1ccco1)N1CCN(C(C#N)c2ccco2)CC1 (stereo not drawn)	.	-0.45
CSc1ccccc1-c1nnc(SCc2ccc(Cl)cc2Cl)o1	-0.035	.
Cc1cccc2c3c4n(c12)CC1COC4(CCC3)O1 (stereo not drawn)	1.1	-0.45
CCCn1c2ccc(F)cc2c2nc3n(c(=O)c21)CCS3	.	-0.25
COc1ccc(C2CCCCCN2C(=O)Cn2nc(C(N)=O)c3ccccc3c2=O)cc1 (stereo not drawn)	.	0.75
COC(=O)c1nnn(-c2nonc2N)c1CN1C(=O)c2ccccc2C1=O	-0.01	-0.85

Continued.
SMILES	Ba CapD inh	AID504770
O=C(c1ccc2c(c1)CCN2S(=O)(=O)c1ccccc1)N1CCOCC1	-0.11	-0.15
O=c1[nH]ncc(N2CCCC2)c1Br	.	0.3
COc1ccccc1NS(=O)(=O)c1cccs1	-0.42	1.2
CN1CCN(C(=O)COc2cc(=O)n(C)c3ccccc23)CC1	52	3
COC(=O)c1c(NC(=O)c2cc3ccccc3o2)sc2c1CCCC2	.	1.4
C=CCNC(=O)C1=CC(c2ccc(F)cc2)=NS(=O)(=O)N1C	-0.93	0.6
O=C1C2CC=CCC2C(=O)N1Cc1nnc(-c2ccc(Cl)cc2)o1 (stereo not drawn)	.	-0.75
Cc1oc(S(=O)(=O)N(C)C)cc1C(=O)Nc1ccc(Cl)cc1	-1.9	-0.05
NC(=O)c1nc(Cl)c(Cl)c(Cl)c1Cl	.	-0.7
COc1ccccc1OCC(=O)Nc1ccc(-c2nnc(-c3ccccc3)o2)cc1	0.42	0.3
CN(C)c1ccc(C2(c3ccc(N(C)C)c4ccccc34)C=Cc3c(ccc4ccccc34)O2)cc1 (stereo not drawn)	-1.3	.
Cc1cc2nc(NCc3ccccn3)c3ccccc3n2n1	.	0.25

Next part:
SMILES	Ba CapD inh	AID504770
CC(C)c1nccn1S(=O)(=O)c1cc([N+](=O)[O-])ccc1Cl	-0.55	.
CCOC(=O)c1ccc(NC(=O)c2ccc(S(=O)(=O)N3CCOCC3)cc2)s1	.	-0.1
CCCCc1nc2n[nH]c(N)c2c2c1CCC2	-0.35	1.4
CC(=O)c1nnn(-c2c(Cl)cc(Cl)cc2Cl)c1C	0.21	.
CN(C)/C=N/NC(=O)CN1CCN(c2ncc(C(F)(F)F)cc2Cl)CC1	-0.58	.
CC(C)N1CC2=C(OC(N)=C(C#N)C2c2ccsc2)/C(=C/c2ccsc2)C1 (stereo not drawn)	0.14	.
Cc1ccc(-n2c(C)cc(C(=O)CSc3nc(N)cc(N)n3)c2C)cc1C	.	-0.35
c1ccc2c(c1)OCCCO2	.	-0.7
O=C(Nc1cc(Cl)ccc1N1CCOCC1)c1cccc([N+](=O)[O-])c1	-0.86	.
Cc1ccc2nsnc2c1NC(=O)C(C)(C)C	.	-0.35
O=c1c2c3c(sc2ncn1Cc1cccc(Br)c1)CCCC3	-0.26	.
CC(=O)N/C(=C/c1ccoc1)C(=O)O	-1.4	-0.05

Next structures.
SMILES	Ba CapD inh	AID504770
Cc1nn2c(c1-c1cccc(Cl)c1)NCN(Cc1ccc(Cl)cc1)C2	-0.36	-1.4
CNc1ccccc1-c1nc2ccccc2o1	.	0.4
O=C(NCCCN1CCCC1)c1ccc(Cn2c(=S)[nH]c3ccc(Br)cc3c2=O)cc1	-0.59	.
CC(=O)N1CC(C)Oc2ccc(S(=O)(=O)N(CC(C)C)CC(C)C)cc21 (stereo not drawn)	-1.8	0.75
Cn1c(=S)[nH]c2ccc(Br)cc2c1=O	-1	3
N#CCCn1c2ccc(Cl)cc2c2cc(Cl)ccc21	0.54	.
CN(C)c1ccc(N)cc1C(=O)O	0.2	-0.45
